Screening results as filed in PubChem.
MgcRacGAP Rac1: inhibition of MgcRacGAP-stimulated Rac1 GTP hydrolysis – biochemical, inorganic phosphate detection, orthogonal assay, confirmation (AID 652142). MgcRacGAP/Rac1F28L GTP hydrolysis, Biomol green phosphate; stronger effect = higher value; test concentration not given here; none was called active though about 1 in 100 pass the limit. inhibition, %. 2,400 tested, under 10 active;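 active = inhibition over three standard deviations or about 65%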;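 note: full inhibition control lacks the GAP enzyme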
* marks the source's active call; other numbers are inactive results. Some of the compounds tested, so the mix of outcomes need not match the whole.

SMILES | MgcRacGAP Rac1
COc1cc(/C=N/NC(=O)C2CCN(CC(O)COCc3ccccc3)CC2)ccc1O (stereo not given) | 12
CC(=O)C[C@H]1c2cc(F)ccc2S(=O)(=O)N1c1ccc(N(C)C)cc1 | 28
Cc1ccc(O)c(C=Nc2ccc3[nH]ncc3c2)c1 | 23
COc1ccc(CCNCCN2CCOCC2)cc1 | 29
Nc1ccc2[nH]c(=S)[nH]c2c1 | 39
CN(C)C(=S)N=c1ssc(=S)n1Cc1ccccc1 | 20
Cc1cc(O)ccc1NC(=O)c1ccccc1 | 36
Cc1c(N=Nc2ccc(O)cc2)c(=O)n(-c2ccccc2)n1C | 24
O=c1nc2s/c(=C\c3ccc(-c4ccccc4[N+](=O)[O-])o3)c(=O)n2nc1-c1ccccc1 | 35
CCOc1cc(/C=N/Nc2ncc(C)c(=O)[nH]2)ccc1O | 10
CC(C)N=c1scc(-c2ccco2)n1/N=C/c1ccc(O)c(O)c1 | 28
COc1ccc(/C=N/Nc2ncnc3sc4c(c23)CCCC4)cc1O | 31

(more compounds)
SMILES | MgcRacGAP Rac1
O=C(/C=C/c1ccc(O)c(O)c1)NC(=O)c1ccccc1O | 17
Cc1cc(Br)cc(C=Nc2ccc(N3CCOCC3)cc2)c1O | 21
Cc1ccc(N2C(S)=C(C#N)C(=O)NC2c2ccco2)cc1 (stereo not given) | 44
Cc1cccc(N2C(S)=C(C#N)C(=O)NC2c2ccco2)c1 (stereo not given) | 40
CN(C)c1ccc(N=C/C=C2\N(C)c3ccccc3C2(C)C)cc1 | 23
COc1cc(/C=C/C(=O)OCC(=O)N2CCN(C(=O)c3ccco3)CC2)ccc1O | 26
CCOC(=O)C1CCCN(C(=S)Nc2ccc(Nc3ccccc3)cc2)C1 (stereo not given) | 28
CN(C)c1ccc(N=c2sc3ccccc3n2C)cc1 | 24
C(=N\N1CCOCC1)/c1nc(-c2ccccc2)n2ccccc12 | 13
COc1cc(/C=N/NC(=O)c2cnccn2)ccc1O | 26
O=C(N/N=C/c1ccc(O)cc1)c1csc2ccccc12 | 32
COc1cc(/C=C/C(=O)OCC(=O)N(C)Cc2ccccc2)ccc1O | 25

(more compounds)
SMILES | MgcRacGAP Rac1
CSCc1ccc(C(=O)N2CCCC(Nc3ccc4c(c3)OCCO4)C2)o1 (stereo not given) | 3
Cc1ccc2nc(/N=C(\N)NC(=O)N3c4ccccc4Sc4ccccc43)nc(C)c2c1 | 35
CCOc1cc(/C=C2\CN(CC)C/C(=C\c3ccc(O)c(OCC)c3)C2=O)ccc1O | 16
CC1(C)CC(=O)C(C=Nc2ccc(O)cc2)=C(O)C1 | 17
O=C(NC(=S)Nc1ccc(O)cc1)C1CCCC1 | 12
COc1cc(CNc2ccc3[nH]c(=O)[nH]c3c2)ccc1OCc1c(F)cccc1Cl | 37
Cc1ccc(Nc2ccc(N)cc2S(=O)(=O)O)cc1 | 26
CCCn1c(=O)c2ccccc2n2c(SCCNCCO)nnc12 | 13
CN(C)c1ccc(/C=C2/NC(=O)NC2=O)cc1 | -1
COc1cc([C@H]2OC[C@H]3[C@@H]2CO[C@H]3c2ccc(O)c(OC)c2)ccc1O | 23
C=CCc1cccc(C=Nc2cc(Br)ccc2O)c1O | 26
CC(=O)N1CCN(c2ccc(NCc3ccco3)cc2)CC1 | 11

(cont.)
SMILES | MgcRacGAP Rac1
CCn1c(=O)c2c3c(sc2n2c(=S)[nH]nc12)CCC3 | 27
Nc1ccc2nc(-c3ccccc3)[nH]c2c1 | 27
COc1ccc(NC(=O)/C(Cl)=C(/Cl)S(=O)Cc2ccc(Cl)cc2)cn1 (stereo not given) | 59
Oc1ccccc1C=NC1=NN(c2cccc(C(F)(F)F)c2)CC1 | 23
O=c1cc(-c2ccc(O)c(O)c2)oc2cc(O)c(C3OC(CO)C(O)C(O)C3O)c(O)c12 (stereo not given) | 29
O=C(Nc1ccc(C2=NCCN2)cc1)c1ccc(C(=O)Nc2ccc(C3=NCCN3)cc2)c(Cl)c1 | 63
COc1cc(/C=N/N2C(=O)c3ccccc3C2=O)ccc1O | 19
COc1ccc(NCc2cc(=O)[nH]c3ccccc23)cc1 | 10
Nc1ccc(O)c([N+](=O)[O-])c1 | 24
Cc1cc(N)c2cc(NC(=O)/C=C/c3ccccc3Cl)ccc2n1 | 80
O=C1CSC(=Nc2ccc(O)cc2)N1 | 10
Nc1nc(N)c2[nH]c(=S)[nH]c2n1 | 30

Carrying on.
SMILES | MgcRacGAP Rac1
O=C(CNC(=O)c1ccccc1Br)N/N=C/c1ccc(O)cc1 | 8
COc1cc(/C=N/NC(=O)c2c(-c3ccccc3)noc2C)ccc1O | 28
Cc1ccc(CCNc2ccc3ccccc3c2)cn1 | 20
O=C1NC(=S)NC1=Cc1ccc(O)cc1 | 25
COc1cccc(CNc2ccc3c(c2)ncn3C)c1OC | 26
COc1ccc2c(c1)Sc1ccccc1N2 | 23
COc1cc(/C=N/NC(=O)Cn2nnc3ccccc32)ccc1O | 24
CCn1c(CSc2nc3ccccc3s2)nnc1SCC(=O)c1ccc(O)c(O)c1 | 31
COc1cc2c(cc1OC)C(/C=C/c1ccco1)=NCC2 | 48
COc1ccccc1CNCC(=O)Nc1ccc(N(C)C)cc1 | 33
Nc1ccc2c(c1)Cc1cc(N)c(Br)cc1-2 | 19
COc1ccc(Br)cc1CN(C)CC(=O)NCCc1ccccc1 | 60

The list goes on:
SMILES | MgcRacGAP Rac1
COc1ccc(NC2CCCN(C(=O)CCc3cccc(F)c3)C2)cc1 (stereo not given) | 30
CC1(C)CC(=O)C2=C(C1)Nc1ccccc1S2 | 32
O=C1C(SCCO)=C(SCCO)C(=O)c2ccccc21 | 79
Nc1ccc(-c2nc3ccc(N)cc3s2)cc1 | 23
CCOc1ccccc1Oc1cn[nH]c1-c1ccc(O)cc1O | 36
O=[N+]([O-])c1ccc(N/N=C/c2ccc[nH]2)cc1 | 15
FC(F)(F)c1cccc(N2CCC(N=CN3CCCCCC3)=N2)c1 | 27
COc1ccc(N=Cc2c(O)cc(C)oc2=O)cc1 | 15
Cc1ccc2oc(=O)c(/C=C(\O)c3ccccc3)nc2c1 | 21
COc1cc(/C=C/C(=O)OCC(=O)Nc2ccc(S(=O)(=O)N3CCCC3)cc2)ccc1O | 1
COC(=O)C1=C(O)/C(=C\c2ccc(O)c(OC)c2)N=C1C | 25
CCOc1cc(/C=N\n2nnnc2N)ccc1O | 19

Reformatted: 8 of the compounds above.
MgcRacGAP Rac1,SMILES
32,CC1(C)CC(=O)C2=C(C1)Nc1ccccc1S2
79,O=C1C(SCCO)=C(SCCO)C(=O)c2ccccc21
23,Nc1ccc(-c2nc3ccc(N)cc3s2)cc1
36,CCOc1ccccc1Oc1cn[nH]c1-c1ccc(O)cc1O
15,O=[N+]([O-])c1ccc(N/N=C/c2ccc[nH]2)cc1
27,FC(F)(F)c1cccc(N2CCC(N=CN3CCCCCC3)=N2)c1
15,COc1ccc(N=Cc2c(O)cc(C)oc2=O)cc1
21,Cc1ccc2oc(=O)c(/C=C(\O)c3ccccc3)nc2c1

Following part.
SMILES | MgcRacGAP Rac1
Cc1cccc2c1c1ccc3c(c1n2C)C(=O)C=CC3=O | 3
CCN(CC)S(=O)(=O)c1ccc(C)c(NC(=O)CN2CCN(C)CC2)c1 | 30
O=C(C1CCCN(Cc2cccnc2)C1)N1CCCCC1 (stereo not given) | 21
COc1cc(/C=C/c2nc3ccccc3c(=O)[nH]2)ccc1O | 26
CC(=O)Oc1ccc2c(=O)c(Oc3ccccc3)coc2c1OC(C)=O | 20
Nc1cc(Cc2ccccc2)ccc1O | 17
COc1cc(/C=N/NC(=O)C2=NNC(=O)C2C)ccc1O (stereo not given) | 7
Cn1c(=O)[nH]c(N)c(Br)c1=O | 61
O=C1C=CC2(O[C@H](c3ccccc3)[C@@H](c3ccccc3)O2)[C@H](Sc2ccccc2O)C1 | 65
Oc1cc(O)cc(-c2cc3ccc(O)cc3o2)c1 | 14
CCOc1cc(/C=N/NC(=O)CCc2n[nH]c(=O)[nH]c2=O)ccc1O | 22
CC(=O)Nc1n[nH]c(=S)s1 | 25

The list continues:
SMILES | MgcRacGAP Rac1
Nc1ccc(Nc2ccncc2)cc1 | 23
COc1cc(/C=N\NC(=O)CNC(=O)C2COc3ccccc3O2)ccc1O (stereo not given) | 22
Cc1ccc(Nc2n[nH]c(=S)s2)c(C)c1 | 38
CCOC(=O)N/N=C/c1ccc(N(CC)CC)cc1O | 26
COc1cc(-c2nc3ccccc3s2)ccc1O | 18
CCN(CC)c1ccc(NC(=O)CSC(=O)c2ccccc2)cc1 | 17
CCC(=O)N1CCc2cc(S(=O)(=O)CCC(=O)NCc3ccc(C)cc3)ccc21 | 26
COc1cc(/C=N/NC(=O)CCc2n[nH]c(=O)[nH]c2=O)ccc1O | 24
COc1cc(C=NNC(=O)c2ccccc2-n2cccc2)ccc1O | 22
O=C(N/N=C/c1ccc(O)c(O)c1)c1cccc(S(=O)(=O)N2CCCCC2)c1 | 27
Nc1c(/C=C2/C=CC(=O)C(O)=C2)c(=O)nc2sc(CC(=O)N3CCCC3)nn12 | 30
COc1cc(-c2nc3ccc(C)cn3c2Nc2ccc3c(c2)OCCO3)ccc1O | 21

(listing goes on)
SMILES | MgcRacGAP Rac1
O=c1oc2ccccc2c2c1C(c1ccc(Cl)cc1)Nc1ccc3ccccc3c1-2 (stereo not given) | 27
O=C(CC(=O)Nc1ccc(Cl)c(Cl)c1)N/N=C/c1ccc(O)cc1 | 31
O=C1CSC(=S)N1Nc1ccccc1 | 17
O=C1/C(=C/c2ccccc2[N+](=O)[O-])COc2ccccc21 | 26
CN(C)C(=S)N=c1ssc(=S)n1Cc1cccnc1 | 37
Cn1ccc(=Nc2ccc(NC(=O)c3ccc(N=c4ccn(C)c5ccc([N+](=O)[O-])cc45)cc3)cc2)cc1 | 67
CCOc1cc(/C=N/NC(=O)c2ccc(=O)n(C)c2)ccc1O | 6
COc1ccc(C)cc1NC(=O)C(NCC(O)c1ccccc1)c1ccccc1 (stereo not given) | 11
COc1ccc(C=C2C(=O)c3ccccc3C2=O)cc1O | 29
CCCCCCCCCCCCCCCC[n+]1ccccc1 | 47
COc1cc(/C=C/C=C2/CC/C(=C/C=C/c3ccc(O)c(OC)c3)C2=O)ccc1O | 27
C=CCN=c1scc(C)n1/N=C/c1ccc(O)c(O)c1 | 28

Continuation.
SMILES | MgcRacGAP Rac1
CCN(CC)CC(=O)NN(Cc1ccccc1)c1ccccc1 | 24
COc1cc(/C(C)=N\NC(=O)CSc2nc3ccccc3n2C)ccc1O | 28
COc1ccc(-c2ncc3ccccn23)cc1OC | 21
CN1CCN(CCCNCc2cn(CCC#N)c3ccccc23)CC1 | 28
CCOC(=O)c1c(-c2ccccc2)csc1NC(=O)C(C)NCCCN1CCOCC1 (stereo not given) | 19
Cc1cc(C)c(OCCCCN(C)Cc2ccccc2)c(C)c1 | 28
COc1cc(/C=C2/SC(=Nc3ccc(O)cc3)NC2=O)ccc1O | 39
CCN=c1scc(C)n1/N=C/c1cc(Br)c(O)c(OC)c1 | 21
CC(=O)Nc1cccc2cc(O)ccc12 | 21
Nc1ccn([C@@H]2O[C@H](CNCC3=CCOc4ccc(O)cc43)[C@@H](O)[C@H]2O)c(=O)n1 | 25
C/C(=N\NC(=O)CSCc1ccccc1Cl)c1cc(O)ccc1O | 8
CS(=O)(=O)Cc1nc2ccccc2oc1=O | 19

Additional structures:
SMILES | MgcRacGAP Rac1
COc1cc(CC(=O)OCC(=O)Nc2ccc(N(C)C)cc2)cc(OC)c1OC | 29
CCCCN(CCCC)CCNC(=O)CSCc1ccc(C)cc1 | 10
O=C(c1cc(C2CC2)nn1-c1ccccc1)N1CCN(c2ccc(O)cc2)CC1 | 7
CSc1ncnc2c1ncn2CCCNc1ccc(C)c(C)c1 | 28
CC(=O)Nc1ccc(NC(=O)C(C)OC(=O)COc2ccc(Nc3ccccc3)cc2)cc1 (stereo not given) | 24
CCN(CC(=O)Nc1ccc(S(=O)(=O)N2CCCC2)cc1)CC(=O)Nc1cccc(OC)c1 | 34
CCc1ccccc1NC(=S)NCC1CCN(c2ccc(OC)cc2)C1 (stereo not given) | 16
Cn1c(-c2ccc(Cl)cc2)cnc1NCc1cc2c(cc1[N+](=O)[O-])OCO2 | 22
COc1ccc(NC(=S)NCC2CCN(c3ccc(OC)cc3)C2)cc1 (stereo not given) | 30
COc1ncnc2c1ncn2CCCNc1ccc(C)c(C)c1 | 18
COc1cc(CN2CCC(C(=O)N3CCCC(C)C3)CC2)cc(Br)c1O (stereo not given) | 23
COc1cc(/C(C)=N/NC(=O)Cc2c(C)[nH][nH]c2=O)ccc1O | 27

Remaining list, next part.
SMILES | MgcRacGAP Rac1
Nc1ccccc1Sc1ccc(C(=O)c2ccccc2C(=O)O)cc1[N+](=O)[O-] | 36
O=c1[nH][nH]cc1C=Nc1cc(Cl)ccc1O | 26
CC1(C)OC(=O)C(=Cc2ccc(-c3ccc(S(N)(=O)=O)cc3)o2)C(=O)O1 | 28
O=c1oc2cc(O)ccc2c2oc3cc(O)ccc3c12 | 23
N#C/C=C\Oc1ccc(Cl)cc1N | 23
COc1ccc(N2CCC(CNC(=S)Nc3cc(C)cc(C)c3)C2)cc1 (stereo not given) | 27
COc1cc(OC)c(CN2CCCN(C)CC2)cc1Br | 21
CN(C)/N=C/c1ccc(OC(=O)c2cccc([N+](=O)[O-])c2)cc1 | 28
Cc1cnc(NC(=O)CN2CCN(c3ccccc3F)CC2)s1 | 30
CC1(C)CNc2cc(N)ccc2S1 | 19
O=C1c2cccc(NCCCNCCO)c2C(=O)c2cccc(NCCCNCCO)c21 | 62
O=c1c(O)c(-c2ccc(O)cc2)oc2cc(O)cc(O)c12 | 11

Further records follow.
SMILES | MgcRacGAP Rac1
Oc1ccc(-c2csc(Nc3ncccn3)n2)cc1 | 27
O=C1OCC/C1=C\c1ccc(O)cc1 | 64
COC(=O)C(C(=O)OC)C(C)C(C(=O)OC)C(=O)OC | 37
Oc1ccc(/C=N/NC(=S)Nc2cccnc2)c(O)c1 | 34
COc1cc(/C=C/C(=O)OCC(=O)Nc2cccc(F)c2)ccc1O | 24
COc1cc2c[n+](C)c3c4ccccc4ccc3c2cc1OC | 28
O=C(Nc1ccccc1Cl)/C(Cl)=C(\Cl)S(=O)c1ccccc1 (stereo not given) | 75
